AID504770: growth inhibitors of E. coli YBA685 in a screen for V. cholerae RctB (chromosome II replication) inhibitors. E. coli YBA685 rctB-dependent plasmid, OD600 growth, 3 h; stronger effect = lower value. z-score (no concentration beside the values). 130,000 tested, 0.27% active;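 active = z-score under -2 on both plates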;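 note: wells of about 30 µL received 100 nL stock; score is relative to mean and SD of the test wells; the first replicate is given; strong numbers were not always called active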
CapD inh: CapD enzyme inhibition. 140,000 tested, 0.23% active. AID 492967. z-score (concentration not given with the values). purified CapD enzyme, fluorescence intensity read-out; stronger effect = lower value; some hits fall short of the stated cut;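 active = z-score under -4 in either of two replicates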;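 note: stock transfer was 100 nL into about 40 µL; score is relative to mean and spread of the plate; one replicate is shown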
Numbers without * were called inactive; nt = no result given. Rows are unselected (roughly 0.39% active in at least one column).

SMILES	AID504770	CapD inh
CCCCN(CC)C(=O)Cn1cnc2onc(-c3ccc(F)cc3)c2c1=O	1.05	0.105
Cc1ccc(S(=O)(=O)NCC(=O)N2CCC(C)CC2)cc1	-0.4	0.285
c1ccc(CN2CN(C3CCCCC3)Cn3c2nc2ccccc23)cc1	-0.55	nt
COc1ccc(C2C3=C(CC(c4cccc(F)c4)CC3=O)Nc3ccccc3N2C(=O)CCC(=O)O)cc1 (stereo not given)	nt	9.59
CNC(=O)c1cnn(-c2nc(-c3ccc(Cl)cc3)cs2)c1C(F)(F)F	nt	-0.275
Cc1ccccc1CCOC(=O)NNC(=O)CSc1ncnc2c(C)csc12	nt	0.32
CN(C)S(=O)(=O)c1cccc(CSc2ncnc3c2cnn3-c2ccccc2)c1	0.2	nt
O=C(O)C1C2C=CC3(CN(c4ccc(Cl)c(F)c4)C(=O)C13)O2 (stereo not given)	1.95	0.3
Cc1ccc(CCNC(=O)C2CCC(Cn3c(=O)[nH]c4ccsc4c3=O)CC2)cc1 (stereo not given)	0.1	-1.23
CCN1CCN(S(=O)(=O)c2ccc(F)cc2)CC1	-1.25	-0.27
CCCNC(=O)COc1ccc2ccc(=O)oc2c1	-0.75	nt
Nc1ccc(C2CCCc3nonc32)c2nonc12 (stereo not given)	1.65	-2.34
CC1CC(C)CN(S(=O)(=O)c2cccc(C(=O)OCCN3CCCC3=O)c2)C1 (stereo not given)	-0.1	nt
CCc1nc2cccnc2n1-c1ccc(CC(=O)NCCN2CCOCC2)cc1	-0.45	1.4
O=C(CSc1nnc2ccccn12)N1CCc2ccccc2C1	-1.4	1.62
COc1cc(C)c(CN2CCN(C(=O)c3cc(S(=O)(=O)N(C)C)ccc3Cl)CC2)cc1OC	-0.25	nt
NS(=O)(=O)c1ccc(NC(=O)COC(=O)c2cc3ccccc3o2)cc1	-0.7	nt
Cc1cc(C)cc(NC(=O)C(Sc2nnc(C)n2C2CC2)c2ccccc2)c1 (stereo not given)	-0.15	nt
O=C(COC(=O)c1ccc(F)c(S(=O)(=O)N2CCOCC2)c1)NCc1ccc2c(c1)OCO2	-0.6	nt
CCOC(=O)c1c(C)c(C#N)c(NC(=O)c2ccccc2)n1-c1ccccc1	-3.8	0.595
Cc1ccc(NC(=O)/C(=C/c2cccc([N+](=O)[O-])c2)NC(=O)c2ccccc2Br)c(Br)c1	nt	-0.4
CCC1C=CCC2C(=O)N(CC(=O)NCCC3=CCCCC3)C(=O)C12 (stereo not given)	-0.7	nt
COc1ccc(Br)cc1/C=C1N=C(/C=C\c2cccc([N+](=O)[O-])c2)OC/1=O	nt	0.005
COc1cccc2sc(N3CCc4ccccc4C3)nc12	0.1	-0.125
COc1ccc(Cl)cc1Nc1nc(-c2cc3cc(Br)ccc3oc2=O)cs1	nt	-1.04

(more compounds)
SMILES	AID504770	CapD inh
OC(Cn1ccc2ccccc21)Cn1c(Cc2ccccc2)nc2ccccc21 (stereo not given)	1.25	0.66
O=C(O)CSCC(=O)N1CC=C(c2ccc(F)cc2)CC1	nt	0.25
COc1cccc(NCc2nnc(SCc3nc4ccccc4o3)n2C2CCCCC2)c1	-0.05	nt
COc1ccc(NC(=O)c2ccc3c(=O)n(Cc4ccco4)c(=S)[nH]c3c2)c(OC)c1	1.15	0.235
CN1CCC(N(Cc2ccco2)C(=O)c2cc3sccc3n2Cc2ccccc2)CC1	-0.7	nt
NC(=O)CSc1nc2sc3c(c2c(=O)n1CCc1ccccc1)CCC3	nt	0.095
CCCN(C1=NC2CS(=O)(=O)CC2S1)c1ccccc1F (stereo not given)	0.1	-0.14
CCOC(=O)c1c(NC(=O)COc2ccc(Cl)cc2)sc(C(=O)Nc2ccc(OC)cc2OC)c1C	nt	0.69
O=C(c1ccco1)N1CCN(C(=O)C2CCCN(S(=O)(=O)Cc3ccccc3)C2)CC1 (stereo not given)	-0.05	nt
O=C(c1ccc(F)cc1)c1c[nH]c(C(=O)NCc2cccs2)c1	0.25	-0.54
Cc1nc2cc(NC(=O)C3COc4ccccc4O3)ccc2s1 (stereo not given)	-0.6	-0.13
CN(C)C(=O)C(OC(=O)Cc1n[nH]c(=O)c2ccccc12)c1ccccc1 (stereo not given)	0.4	nt
CN(C)S(=O)(=O)c1cccc(COC(=O)c2cccnc2N)c1	-0.2	nt
O=C(CCc1c[nH]c2ccccc12)Nn1c(SCc2cc(=O)n3ccccc3n2)nc2ccccc2c1=O	nt	16
CCN(CC)c1ccc(/C=C/c2cc(=O)cc(C)o2)cc1	-0.65	nt
O=C(OCCN1CCN(CCCN2c3ccccc3Sc3ccc(C(F)(F)F)cc32)CC1)N1CC=C(n2c(=O)[nH]c3ccccc32)CC1	nt	0.625
CCOC(=O)c1ccc(N2N=C(C(F)(F)F)/C(=C/c3ccc(O)c(OC)c3)C2=O)cc1	nt	0.06
N#Cc1cccnc1Nc1ccc(Cl)c(Cl)c1	0.45	nt
CC(=O)CC(=O)NCc1ccccc1	nt	0.355
COC(=O)c1ccc(Nc2nnc(Cc3ccc(Cl)cc3)c(=O)[nH]2)cc1	1.05	-0.71
Nc1cc(Cl)ccc1C(=O)OC1CCOC1=O (stereo not given)	-1.4	nt
CCCC[B-]1(O)c2ccccc2NC(C)=[N+]1c1ccccc1 (stereo not given)	nt	-0.13
O=C(O)c1ccc(I)o1	-1.3	nt
O=C1C(=O)c2ccccc2C(O)=C1c1ccc(Cl)cc1	0.1	-0.985
CCOC(=O)c1c(C)noc1-c1ccco1	-0.3	1.71

Other records follow:
SMILES	AID504770	CapD inh
CCCN(CCC)S(=O)(=O)c1ccc(C(=O)N2CCC(=O)c3ccccc32)cc1	0.5	nt
COc1cccc(-c2cc3nc(-c4ccccc4)cc(=O)n3[nH]2)c1	-0.05	3.36
COC(=O)COc1cc2occ(-c3csc(C)n3)c(=O)c2cc1C	-0.15	0.595
O=C(CSc1nc(Nc2ccc(F)cc2)c2ccccc2n1)NCc1ccco1	nt	3.08
COc1cc(/C=C2\N=C(c3ccccc3)N(c3ccc(Cl)cc3)C2=O)cc(OC)c1OC	nt	-0.17
CC(=O)N(Cc1ccccc1)Cc1cc2ccccc2[nH]c1=O	-0.4	nt
COc1ccc(-c2cc(C(F)(F)F)n3ncc(C(=O)N4CCN(Cc5ccccc5)CC4)c3n2)cc1	nt	1.25
O=C(c1ccc(Cl)cc1Cl)N1CCN(C(=O)C2CCCCC2)CC1	0.45	-0.53
CC(C)CC(=O)NCc1ccc2c(c1)OCO2	-0.1	0.15
O=C(c1cccc(F)c1)N1CCN(c2cc(N3CCCCC3)c(F)cc2[N+](=O)[O-])CC1	nt	-0.315
COc1ccc(-c2cc(C(=O)Nc3ccccn3)c3ccccc3n2)cc1OC	nt	-0.02
CC12c3ccccc3C(c3ccccc31)C1C(=O)N(c3ccc(Cl)cc3[N+](=O)[O-])C(=O)C12 (stereo not given)	nt	-0.84
CN(C)c1ccc(/C=C/C(=O)C2=C(O)c3ccccc3C2=O)cc1	-0.05	-0.69
CCCN(CCC)S(=O)(=O)c1ccc(C(=O)NNC(=O)c2ccc(CSc3ccccn3)o2)cc1	nt	0.135
CC1(C)OC(=O)C(=Cc2ccc(OCc3ccc(F)cc3)cc2)C(=O)O1	nt	0.17
CC1(C)OC(=O)C(=Cc2cc(Br)cs2)C(=O)O1	nt	0.055
Nc1nc(NCc2ccco2)n[nH]1	-1.25	0
CC(C)CC(=O)NC(=S)Nc1ccc(NC(=O)c2ccco2)cc1	-0.1	-0.28
CCc1ccc(NC(=O)CC2C(=O)N(c3ccccc3)C(=O)N2C2CCCC2)cc1 (stereo not given)	-0.5	-0.07
CC1CCc2c(sc(NC(=O)C3CCCN3S(=O)(=O)c3cccs3)c2C(N)=O)C1 (stereo not given)	-0.8	nt
NC(=O)c1cnn(-c2ccc(F)cc2)c1N	nt	0.27
COc1ccc(C2=C(Nc3ccc(C(=O)N4CCOCC4)cc3)c3ccccc3C2=O)cc1	1.25	0.3
COc1cccc(-c2nnc(SCC(=O)NCCOc3ccccc3)n2-c2ccccc2)c1	1.1	0.325
COC(=O)C1=CN(c2cccc(C(F)(F)F)c2)C=C(C(=O)OC)C1c1cc(OC)c(OC)c(OC)c1	nt	2.48
COc1ccc(C(=O)CSc2nc(N)c(C#N)c(C3CCCCC3)c2C#N)cc1	nt	0.455

The list goes on:
SMILES	AID504770	CapD inh
CC(=O)Nc1ccc(C(=O)N2CCN(CCC3CCCCC3)CC2)cc1	nt	-1.03
CCOC(=O)N1CCC(n2c(=S)[nH]c3ccccc3c2=O)CC1	-0.9	-0.22
Cc1ccc(Cn2c(C(=O)NCCCN3CCOCC3)cc3sccc32)cc1	0.7	-0.35
COc1ccc(NC(=O)C2(NS(=O)(=O)c3cccc4cccnc34)CCCCC2)cc1OC	0.25	0.17
CCOC(=O)c1c(-c2ccccc2)oc2c1cc(OC(=O)c1cccc(Cl)c1)c1ccccc12	nt	0.3
O=C(Oc1ccccc1/C=C1\Sc2ccccc2C1=O)c1ccc([N+](=O)[O-])o1	nt	-1.03
CCN(CC)c1ccc2cc(C(N)=O)c(=Nc3ccc(Cl)cc3Cl)oc2c1	nt	-0.375
Clc1ccc(Sc2ccc(Cc3ccc(Cl)cc3Cl)nn2)cc1	nt	-0.635
CN(C)c1ccc(C=NCC(O)CN=Cc2ccc(N(C)C)cc2)cc1 (stereo not given)	-0.95	-1.1
O=C(/C=C/c1ccc(-c2cc(Cl)ccc2Cl)o1)N1CCOCC1	0.2	6.44
Cc1ccc(C2=N/C(=C\c3ccccc3OS(=O)(=O)c3ccccc3)C(=O)O2)cc1	nt	2.41
O=C(N=C1c2ccccc2CN1c1ccccc1)c1ccncc1	1.3	0.125
COc1ccc(CCNC(=O)CSc2nc3c(c(=O)n(C)c(=O)n3C)n2Cc2ccccc2F)cc1OC	0.3	-0.105
Cc1ccc(S(=O)(=O)c2ccc(NC(=O)c3ccc(Cl)cc3)cc2)cc1	nt	0.56
Cc1ccccc1-n1c(O)c(C2=c3cc(Br)ccc3=NC2=O)sc1=O	nt	-0.65
Cc1cccc(N2CCN(S(=O)(=O)c3ccc(S(C)(=O)=O)cc3)CC2)c1	nt	-0.74
O=C(CSc1ncccn1)NCCC1=CCCCC1	0.75	nt
O=C(O)c1ccc(Cl)cc1N=Cc1nc(-c2ccc(Br)cc2)oc1O	nt	-0.92
CC(Oc1cccc(Cl)c1)C(=O)N1CCN(c2ncccn2)CC1 (stereo not given)	-0.1	nt
O=C(OCc1ccc([N+](=O)[O-])cc1)C1CCCN1S(=O)(=O)c1ccc2c(c1)CN(C(=O)C(F)(F)F)CC2 (stereo not given)	nt	-0.5
COc1ccc(CCNC(=O)CSc2nc3cc(OC)c(OC)cc3c3nc(C)nn23)cc1OC	0.25	0.07
COc1cccc(SC(C)C(=O)NN=C(c2ccccc2)c2ccccc2)c1 (stereo not given)	nt	-0.19
O=C(O)c1cc(=O)[nH]c(-c2ccccc2)n1	-0.15	nt
O=C(/C=C/c1cccc(C(F)(F)F)c1)NNC(=O)OCCc1ccccc1Cl	nt	1.46
CCn1c(CNC(=O)c2ccccc2)n[nH]c1=S	-0.35	nt

Entries of single compounds as entered above. Order of screens: AID504770	CapD inh
Entry for CC(=O)Nc1ccc(C(=O)N2CCN(CCC3CCCCC3)CC2)cc1 : nt	-1.03
Entry for O=C(O)c1cc(=O)[nH]c(-c2ccccc2)n1 : -0.15	nt
Entry for COc1ccc(CCNC(=O)CSc2nc3cc(OC)c(OC)cc3c3nc(C)nn23)cc1OC : 0.25	0.07
Entry for CC(Oc1cccc(Cl)c1)C(=O)N1CCN(c2ncccn2)CC1 (stereo not given) : -0.1	nt
Entry for O=C(/C=C/c1cccc(C(F)(F)F)c1)NNC(=O)OCCc1ccccc1Cl : nt	1.46

The results go on:
SMILES	AID504770	CapD inh
O=S(=O)(c1ccc(Cl)s1)N1CCC2(CC1)OCCCO2	nt	-0.17
COc1ccc(Cn2c(=O)oc3ccccc32)cc1OC	-0.3	0.105
COc1nccnc1NS(=O)(=O)c1ccc(NCc2ccccc2O)cc1	-0.65	-1.02
O=C(NNS(=O)(=O)c1ccccc1F)c1ccccc1-n1cccc1	nt	0.1
O=C(NCc1ccncc1)C(=O)Nc1ccc(Cl)cc1Cl	nt	-0.485
CCc1ccc(NC(=O)Cn2cc(S(=O)(=O)c3ccccc3)c(=O)c3ccccc32)cc1	1.65	-0.165
COC(=O)NC(C)N1C(=O)C2C3C=CC(C3)C2C1=O (stereo not given)	3.1	4.79
Cc1c(Cc2c(Cl)cccc2Cl)c(=O)ccn1-c1ccc(N(C)C)cc1	nt	-0.37
NC(=O)c1ccc([N+](=O)[O-])cc1C(N)=O	nt	-0.29
CCN(CC)CCN1C(=O)C(=O)/C(=C(/O)c2ccc(S(=O)(=O)N3CCOCC3)cc2)C1c1ccccc1 (stereo not given)	0.35	-1.09
c1ccc(CNC2=NCCC2)cc1	0.65	-0.1
Cc1ccc(-n2c(N)c(C(=O)NCc3ccco3)sc2=S)cc1	0.55	-0.55
Cc1csc(-n2c(C)ccc2C)n1	-0.7	nt
NC(=O)C(Cc1c[nH]c2ccccc12)NC(=O)OCc1ccc([N+](=O)[O-])cc1 (stereo not given)	nt	-0.59

Screening results as filed in PubChem.
